# ClpP mod = qHTS Assay for Activators of ClpP. ATP-dependent Clp protease proteolytic subunit (Bacillus subtilis (strain 168)), P80244. purified B. subtilis ClpP, FRET peptide cleavage, 20 min. Potency, µM (doses to about 57.5 µM), without a hit: at the highest dose activity change, negative = active. 340,000 compounds, 1.9% hits; active = well fitted falling curve with a large enough effect; inconclusive = small, poorly fitted or top-dose-only effect; inactive = no such curve, though single readings can be large or run the other way; note: potency is the fitted concentration of half-maximal effect; the source files actives as falling curves though it sought activators and does not explain the sign; nearly all actives have a fitted effect of over 65% in size; many hits overshoot -100%
# Target sequence (P80244 whole entry, looked up): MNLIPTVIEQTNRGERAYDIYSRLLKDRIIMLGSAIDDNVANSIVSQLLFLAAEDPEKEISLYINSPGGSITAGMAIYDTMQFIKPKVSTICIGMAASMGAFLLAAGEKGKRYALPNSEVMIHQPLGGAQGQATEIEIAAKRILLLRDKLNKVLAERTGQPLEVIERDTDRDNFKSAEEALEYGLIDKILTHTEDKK
#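 FRET quenching reversal measured ClpP activation: 10 microg/mL B. subtilis ClpP at pH 8 with the FRET-FV decapeptide, read at 430 nm after 320 nm excitation. The 20-min minus 0-min signal was scaled between DMSO/no-enzyme wells and ADEP (5.8 microM final).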
# TRPML1 blocker = human mucolipin-1 channel inhibition | activity change, negative = inhibition, % (concentration not given with the values) | TRPML1-inducible cells, Ca2+ dye fluorescence, FDSS; stronger effect = lower value; inhibition of EC80 agonist-evoked calcium signal | Q9GZU1 | 390,000 compounds, 0.02% hits; in the data active means activity change below about -50%; inconclusive means about -30% to -50%; inactive means above about -30%;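 note: stimulus is agonist 54-4 at its EC80 concentration; % is set by controls: 0 for no effect and ±100 for the full control effect; the text of the record puts the active cut at -80%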
# Target sequence (Q9GZU1 whole entry, looked up): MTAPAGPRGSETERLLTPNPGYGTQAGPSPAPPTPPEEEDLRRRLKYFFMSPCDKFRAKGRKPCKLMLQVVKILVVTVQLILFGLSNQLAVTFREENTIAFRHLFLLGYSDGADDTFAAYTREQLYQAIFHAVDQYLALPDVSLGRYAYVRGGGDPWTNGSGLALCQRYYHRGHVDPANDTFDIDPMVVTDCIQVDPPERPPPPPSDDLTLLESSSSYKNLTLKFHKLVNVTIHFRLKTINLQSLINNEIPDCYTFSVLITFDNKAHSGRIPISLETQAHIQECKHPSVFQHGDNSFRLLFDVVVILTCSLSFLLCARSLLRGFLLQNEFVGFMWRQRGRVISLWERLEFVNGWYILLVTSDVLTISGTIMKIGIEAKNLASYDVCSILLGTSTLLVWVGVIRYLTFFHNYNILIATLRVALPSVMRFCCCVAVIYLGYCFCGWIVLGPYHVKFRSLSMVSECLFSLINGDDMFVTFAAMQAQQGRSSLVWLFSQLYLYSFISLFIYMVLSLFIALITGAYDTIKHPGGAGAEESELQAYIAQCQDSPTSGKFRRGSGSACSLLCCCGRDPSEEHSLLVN
#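 TRPML1-DL cells, Tet-induced overnight (~16 h, 37 °C) at 1,500 cells/well, were loaded with Ca8 no-wash dye plus quencher for 45-90 min at room temperature. Compounds were pinned during FDSS kinetic reading; agonist 54-4 at EC80 (4 uM final) then added.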
# * = called active by the depositor; ? = inconclusive.
# Fields – ClpP mod | TRPML1 blocker
- COc1ccc(S(=O)(=O)NC(=O)C2(C)CCN2C(=O)Cc2cccc3ccccc23)cc1 (stereo not drawn)
→ -0.1% | -8.3
- O=C(CCSCc1ccc(Cl)cc1)N1CCN(c2ccccc2F)CC1
→ -0.2% | -3.4
- COCCCNC(=O)c1cnc2c(-c3ccc(F)cc3)c(C)nn2c1C
→ -0.6% | 22.4
- O=C(C1CCCCC1)N(Cc1cccnc1)c1nc2c(F)cccc2s1
→ -3.2% | -1.0
- CCOC(=O)CNC(=O)N1[C@H](c2cccs2)[C@@H](C)C(=O)[C@@H](C)[C@@H]1c1cccs1
→ 0.5% | 2.4
- CCOC(=O)c1ccccc1NC(=O)c1c(-c2ccccc2)noc1C
→ -17.2% | 28.0
- O=C(CCc1nc(CN2CCN(S(=O)(=O)c3ccc(F)cc3)CC2)no1)N1CCCCC1
→ 0.5% | 2.1
- CCOc1ccc(C(=O)Nc2c(C(=O)c3ccccc3)oc3ccccc23)cc1
→ ? | 43.9
- COc1ccccc1-c1ccnc2c(-c3ccc(Br)cc3)c(C)nn12
→ 0.3% | -9.5
- N#Cc1ccccc1CSc1nnc(-c2ccccc2)o1
→ 1.3% | -4.0
- COc1ccc(-c2nc3ccccc3n3c(-c4ccc(OC)cc4)c4c(=O)n(C)c(=O)n(C)c4c23)cc1
→ -2.4% | 11.6
- COc1ccccc1NC(=O)Cn1c(=O)c(CNc2ccc(C)cc2)cc2cc3c(cc21)OCCO3
→ -1.7% | -2.6
- Cc1ccc(NC(=O)Cn2cc3c(n2)CCCC3)cc1Cl
→ -0.5% | 4.4
- CC(CCc1ccccc1)NC(=O)Cn1c(=O)nc(-c2ccccc2F)c2cc(Cl)ccc21 (stereo not drawn)
→ 3.6% | -18.4
- Cc1ccc(C(=O)/C=C/c2cn(CC(O)CN3CCc4ccccc43)c3ccccc23)cc1 (stereo not drawn)
→ 3.4% | 8.1
- Cc1c(-c2nnc(SCC(=O)Nc3ccc(Br)cc3)o2)nnn1-c1ccc(F)cc1
→ 0.4% | -6.5
- COc1ccc(-c2cn3nc(SCC(=O)Nc4cccc(C)c4C)ccc3n2)cc1
→ -5.6% | 47.4
- CCCN1CCN(c2cc3c(cc2F)c(=O)c(S(=O)(=O)c2ccc(CC)cc2)cn3CC)CC1
→ ? | 2.7
- CCc1ccc(NC(=O)C(NS(=O)(=O)c2cccs2)C(C)C)cc1 (stereo not drawn)
→ -0.4% | 7.8
- COc1ccc(C)cc1NC1(c2ccccc2)C(=O)c2ccccc2C1=O
→ -0.3% | 11.6
- CCCN1CCN(c2ncnc3sc(C(=O)Nc4ccc(C(C)C)cc4)c(C)c23)CC1
→ 0.6% | -11.8
- O=C(Nc1ccccc1C(=O)N1CCCCC1)c1nsc2ccccc12
→ 0.2% | -1.2
- COC(=O)c1sc(-c2ccccc2)cc1NC(=O)Nc1ccc(Cl)cc1
→ 17.8µM* | -11.6
- Cc1ccc2[nH]c(=O)c3cc(C(=O)N(C)c4ccc(Br)cc4)sc3c2c1
→ ? | 15.6
- COc1ccc(OC)c(NS(=O)(=O)c2ccc(-c3cc(C)no3)s2)c1
→ -1.6% | -7.9
- Cc1ccc2c(CC(=O)Nc3cccc(C(F)(F)F)c3)coc2c1
→ 1.0% | -13.5
- COc1cccc(S(=O)(=O)N(C)C[C@H]2OCc3cn(nn3)CCCC(=O)N([C@@H](C)CO)C[C@@H]2C)c1
→ -11.5% | -8.4
- CCC(=O)Oc1ccc(/C=C(\C#N)c2nc3ccccc3[nH]2)cc1OC
→ -20.1% | 11.4
- CC(=O)N1CCC2(CC1)OC(=O)C(C)=C2C(=O)Nc1ccccc1C(F)(F)F
→ -0.1% | 4.3
- O=C(Nc1ccc2oc(-c3cccnc3)nc2c1)c1ccc(Br)cc1
→ -6.9% | -4.2
- COc1ccc(C)cc1NC(=O)NCc1cccn1Cc1ccccc1
→ 0.8% | 23.0
- Cc1cccc(Cn2c(CNS(=O)(=O)c3ccc(Cl)s3)nc3cccnc32)c1
→ -1.0% | 4.4
- CCCNC(=O)C1(C)CCN(Cc2ccc(-c3ccccn3)cc2)C1 (stereo not drawn)
→ -2.5% | -2.6
- Cc1ccc(-n2c(Cc3ccccc3)nnc2SCc2nc(-c3cccs3)no2)cc1
→ 1.6% | 5.4
- COc1cccc(Cn2c(CNS(=O)(=O)c3ccc(F)c(Cl)c3)nc3cccnc32)c1
→ -1.7% | 8.0
- COc1cc2[nH]c(=O)n(Cc3ccc(C(=O)NCc4ccccc4)cc3)c(=O)c2cc1OC
→ 4.1% | 2.4
- CC(=O)c1ccc(NC(=O)Cn2nc(C(F)(F)F)c3c2CCCC3)cc1
→ 0.3% | 26.2
- Cc1ccccc1Cn1c2ccccc2c2cnn(CC(=O)NCCCc3ccccc3)c(=O)c21
→ -17.4% | -0.2
- CC(=O)Nc1cccc(Oc2nc(NCCN(C)C)nc3ccsc23)c1
→ -16.1% | -8.6
- O=C(NC1CCCCCC1)c1ccc(CS(=O)c2ccc(Br)cc2)o1 (stereo not drawn)
→ -2.0% | 62.6
- Cc1ccc(NS(=O)(=O)c2ccc(-c3cnc(C4CC4)o3)cc2)cc1N(C)C
→ 1.3% | -9.1
- CC(C)CCNC(=O)CCn1c(=O)c2cccn2c2cccnc21
→ -7.0% | 5.5
- CC(=O)c1cccc(NC(=O)C(CC(C)C)NS(=O)(=O)c2ccc3c(c2)CCN3C(C)=O)c1 (stereo not drawn)
→ -3.9% | 29.2
- CCCN(CCC)C(=O)Cn1c(SCc2cccc(F)c2)nc2cccnc21
→ 4.3% | 7.9
- Cc1cccc(CSc2nc3ccncc3n2CC(=O)N(C)C2CCCCC2)c1
→ -24.3% | 16.9
- CCCCN(CC)c1nc(-c2ccccc2F)nc2ccccc12
→ -5.8% | -7.8
- CCOC(=O)c1c(S(=O)(=O)NCC(=O)Nc2ccc(C)c(N(C)C)c2)c(C)n(C)c1C
→ 2.8% | -9.7
- COc1ccc(-n2nnc(-c3nc(-c4ccc5c(c4)OCO5)no3)c2C)cc1Cl
→ -1.0% | -2.3
- Clc1cccc(-c2nc3ccccn3c2Nc2ccc3c(c2)OCCO3)c1
→ 4.1% | 46.5
- Cc1nc2c(C(=O)NCCc3ccc(Cl)cc3)cnn2c(C)c1Cc1c(F)cccc1Cl
→ -0.7% | 19.5
- COc1ccc(S(=O)(=O)NCCc2csc3nc(-c4cccc(C)c4)nn23)cc1F
→ -1.5% | -5.6
- CC(=O)N1CCN(c2nc3c(F)cc(F)cc3s2)CC1
→ -3.6% | -26.6
- CC(=O)Nc1ccc(NC(=O)CCc2c(C)nc3c(c(C)nn3-c3ccccc3)c2C)cc1
→ 4.6% | -10.2
- CN(C)c1ccc(Nc2nc3ccccc3n3nnnc23)cc1
→ 0.1% | -1.0
- COc1ccc(NC(=O)c2ccc(-c3nc(CSc4ccccc4)c(C)o3)cc2)cc1OC
→ -16.5% | 10.2
- CCOC(=O)C1=C(CS(=O)(=O)c2ccc(C)c(C)c2)NC(=O)NC1c1ccccc1OCC (stereo not drawn)
→ 0.1% | -20.4
- COc1ccc(NC(=O)CCCSc2nc(-c3ccco3)cc(C(F)(F)F)n2)c(OC)c1
→ -2.2% | 3.6
- COc1ccc(-c2nc(C(=O)Nc3cccc(C(C)=O)c3)nn2-c2ccccc2Cl)cc1
→ -4.6% | 19.1
- CCN(C(=O)C(NS(=O)(=O)c1ccc(Br)s1)c1ccccc1)c1ccc(C)c(C)c1 (stereo not drawn)
→ -1.8% | 36.0
- Cc1c(C(=O)Oc2ccc(Br)cc2)sc2ncn(Cc3ccccc3F)c(=O)c12
→ -0.9% | 8.3

# Given as labelled records: three of the compounds above
smiles: Cc1nc2c(C(=O)NCCc3ccc(Cl)cc3)cnn2c(C)c1Cc1c(F)cccc1Cl
  ClpP mod: -0.7% | TRPML1 blocker: 19.5
smiles: COc1cc2[nH]c(=O)n(Cc3ccc(C(=O)NCc4ccccc4)cc3)c(=O)c2cc1OC
  ClpP mod: 4.1% | TRPML1 blocker: 2.4
smiles: Cc1cccc(Cn2c(CNS(=O)(=O)c3ccc(Cl)s3)nc3cccnc32)c1
  ClpP mod: -1.0% | TRPML1 blocker: 4.4

# Later entries:
# Fields – ClpP mod | TRPML1 blocker
- COc1ccccc1C(=O)Nc1ccc(C(=O)OCc2cc(=O)n3nc(C4CC4)sc3n2)cc1
→ -21.2% | -12.7
- Cc1ccc(NC(=O)N2CCN(C)c3ncccc32)cc1C
→ -23.1% | 9.3
- COc1ccc(OC)c(CNC(=O)Cn2ncc3c([nH]c4ccc(C)cc43)c2=O)c1
→ -10.5% | ?
- Cc1cc(O)c2c(C)c(CC(=O)N3CCCCC3)c(=O)oc2c1
→ 1.3% | 6.3
- Cc1cc(Nc2ccccc2F)n2nc(-c3ccccc3)nc2n1
→ 4.6% | -7.6
- COc1cccc(CNC(=O)Cc2c(C)c3c(cc(C)c4c(C)coc43)oc2=O)c1
→ ? | 1.7
- Cc1ccc2[nH]c(CSc3nnc(COc4ccccc4C)n3C)cc(=O)c2c1
→ -0.1% | -10.2
- Cc1ccc(C(=O)Nc2cc(-c3nc4ncccc4o3)ccc2C)c(C)c1
→ 0.7% | -9.7
- CCN1CCN(C(=O)c2cnn(-c3cccc(C)c3)c2C2CCN(C(=O)OC(C)(C)C)CC2)CC1
→ 1.2% | 11.8
- Cc1ccc(NC(=O)Cn2c(=O)oc3cc(S(=O)(=O)N4CCCCC4)ccc32)c(Cl)c1
→ 0.2% | 1.7
- CCCC(=O)N1CCCC1(C)C(=O)Nc1ccc2nc(C)ccc2c1 (stereo not drawn)
→ 4.2% | 0.3
- Cc1ccccc1NC(=O)CS(=O)(=O)c1cccc2nsnc12
→ -4.9% | -5.5
- Cc1ccc(CNC(=O)CSc2ncc3c(n2)-c2cc(Cl)ccc2N(C)S3(=O)=O)cc1
→ -13.5% | -1.1
- O=S(=O)(c1ccc2nc(Nc3cccc(F)c3)ccc2c1)N1CCCC1
→ 4.6% | 1.0
- COc1ccc2c(c1)CCc1c(C(=O)Nc3c(C)nn(Cc4ccc(C)cc4)c3C)noc1-2
→ 2.2% | -19.4
- COc1ccccc1NC(=O)Cn1c(=O)n(-c2ccccc2Cl)c(=O)c2sc3ccccc3c21
→ 4.6% | 8.7
- CCCN(C(=O)c1cc2ccc3cccnc3c2[nH]1)c1ccc(F)cc1
→ 6.0% | 21.9
- COc1ccc(CCNC(=O)Cn2nc(-c3ccc(Cl)cc3)ccc2=O)cc1OC
→ 0.2% | -3.2
- CCOCCc1nn2c(=O)cc(COC(=O)CNC(=O)c3cccc(C)c3)nc2s1
→ -0.9% | 0.9
- COc1ccccc1NC(=O)c1c(NC(=O)c2cccs2)sc2c1CCC(C(C)(C)C)C2 (stereo not drawn)
→ -8.5% | 1.2
- COc1cc(-c2noc(-c3ccc(NCc4cccnc4)c([N+](=O)[O-])c3)n2)cc(OC)c1OC
→ 0.8% | 1.8
- CCOc1ccc(CCN2C(=O)C(=O)N([C@@H](CC(C)C)CN3CCC[C@@H]3CN3C(=O)C(=O)NC[C@@H]3CC(C)C)C[C@@H]2Cc2ccccc2)cc1
→ 0.3% | 14.6
- COc1cc(NC(=O)C2CCCN(S(=O)(=O)c3ccc4c(c3)oc(=O)n4C)C2)c(C(=O)O)cc1OC (stereo not drawn)
→ -15.4% | 45.9
- O=C1C2=C(Nc3ccccc3SC2c2ccccc2C(F)(F)F)c2ccccc21 (stereo not drawn)
→ 1.7% | 4.3
- Cc1c(-c2cccc(NC(=O)Nc3ccc(Cl)cc3)c2)nc2ncccn12
→ 5.3% | 1.9
- COc1cc(Cl)c(C)cc1NC(=O)CCCN1C(=O)C(c2ccccc2)Oc2cccnc21 (stereo not drawn)
→ -6.0% | 35.1
- COc1ccccc1CNC(=O)c1ccc2c(c1)N(Cc1cccc(C)c1)C(=O)c1ccccc1S2(=O)=O
→ -12.8% | 20.3
- CCN(CC)CCNC(=O)c1ccc2c(c1)NC(=O)C(CS(=O)(=O)Cc1ccc(F)cc1Cl)N2 (stereo not drawn)
→ 28.2µM* | -10.0
- CC1(C(=O)NS(=O)(=O)c2cccc(Cl)c2)CCN1C(=O)c1ccccc1 (stereo not drawn)
→ -2.7% | -26.7
- Cc1ccc(-c2csc(-c3nc(-c4ccc(Br)s4)cs3)n2)cc1
→ -5.4% | -13.0
- Cc1ccc(NC(=O)C(Cc2ccccc2)NS(=O)(=O)c2cccs2)cc1Cl (stereo not drawn)
→ -8.4% | 0.4
- COc1ccccc1CNC(=O)CCCCn1c(=O)c2ccccc2n(CC(=O)Nc2cccc(Cl)c2)c1=O
→ ? | 3.6
- Cc1ccc(CSc2nc(-c3cccs3)ccc2C#N)cc1
→ 3.6% | -1.3
- COc1cccc(NC(=O)c2oc3ccccc3c2NC(=O)C23CC4CC(CC(C4)C2)C3)c1
→ ? | 0.2
- COc1ccc(-c2nc3c4ccccc4ccn3c2CC2CCCCC2)cc1OC
→ 4.4% | 44.1
- O=C(COc1ccc(F)cc1)Nc1ccc2nc(SCC(=O)N3CCOCC3)sc2c1
→ -1.8% | 9.6
- Cc1ccc(C)c(Cn2c3ccccc3c3cnn(CC(=O)NCC(C)c4ccccc4)c(=O)c32)c1 (stereo not drawn)
→ 0.0% | 4.3
- COc1ccc(CCNc2ncnc3c2c(-c2ccccc2)cn3-c2ccc(F)cc2)cc1OC
→ ? | -22.0
- COc1ccc(N2CCN(Cc3nc4c(c(=O)n(C)c(=O)n4C)n3C(C)C)CC2)cc1
→ -0.7% | 3.1

# These rows are one share of the data. The share of hits here may be higher or lower than overall.
